# Compound activity (PubChem BioAssay)
# VDR inhibitor = blocks the human vitamin D receptor | VDR-SRC2-3 peptide fluorescence polarization, 2 h | Potency, µM, without a hit: max response, negative = inhibition, actives largely listed as inhibitors | 0.93% of 400,000 active | AID 504847; active = well fitted inhibition curve with a large enough effect; inconclusive = small, poorly fitted or top-dose-only effect, or another doubt; inactive = no such curve, though single readings can be large or run the other way; note: series mostly up to about 120 µM
# Target sequence (P11473 whole entry, looked up): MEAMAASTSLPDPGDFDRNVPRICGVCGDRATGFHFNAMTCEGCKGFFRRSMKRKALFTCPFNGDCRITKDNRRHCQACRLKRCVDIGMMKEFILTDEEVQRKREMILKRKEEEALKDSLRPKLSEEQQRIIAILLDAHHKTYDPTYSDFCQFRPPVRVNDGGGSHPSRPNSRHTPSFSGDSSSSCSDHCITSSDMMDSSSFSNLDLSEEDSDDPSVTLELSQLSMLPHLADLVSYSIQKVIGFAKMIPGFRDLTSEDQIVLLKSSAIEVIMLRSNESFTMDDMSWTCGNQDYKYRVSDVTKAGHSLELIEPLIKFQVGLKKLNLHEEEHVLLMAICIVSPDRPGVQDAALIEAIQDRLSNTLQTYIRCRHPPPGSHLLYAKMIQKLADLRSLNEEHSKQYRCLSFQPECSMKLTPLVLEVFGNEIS
#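 The screen uses fluorescence polarization to detect compounds that interfere with recruitment of the SRC2-3 coactivator peptide to VDR; plates are read after 2 h at room temperature.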
# The depositor's hits bear a star; ? = inconclusive; & = joins results of further samples; [ ] = dose if it differs, or a comment. % is set by controls: 0 for no effect and ±100 for the full control effect; potency is the fitted concentration of half-maximal effect. These rows are one share of the data, so the mix of outcomes need not match the whole.
SMILES,VDR inhibitor
CS(=O)(=O)N1CCc2cc(NC(=O)c3ccc(Cl)cc3Cl)ccc21,6%
Cc1noc(C)c1C(=O)NCc1ccco1,8%
O=C(COC(=O)C1CC(=O)N(Cc2ccccc2)C1)Nc1cccc([N+](=O)[O-])c1 (stereo not drawn),-14%
CC(NS(=O)(=O)c1ccc([N+](=O)[O-])cc1)C(=O)NN (stereo not drawn),4%
COc1ccc(Nc2cc(C)nc3ncnn23)cc1Cl,8%
COc1ccc(C(=O)C2CCCN(C(=O)c3cccnc3OC)C2)cc1F (stereo not drawn),-10%
Cc1cc(NS(=O)(=O)c2ccc(NC(=O)Cc3cccs3)cc2)no1,-2%
CCOc1cc(/C=N/NC(=O)CN2CCCCC2)ccc1O,-16%
COc1ccc(C2C(C(=O)c3ccc(C)o3)=C(O)C(=O)N2CC2CCCO2)cc1OC (stereo not drawn),-3%
Oc1cccc2c(NC(=S)Nc3ccc(SC(F)F)cc3)cccc12,-28%
COc1ccc(CCNC(=O)c2cccc3ccccc23)cc1OC,-13%
Cc1ccc(NC(=O)CSCC(=O)OC(C)C(=O)Nc2ccccc2C)cc1 (stereo not drawn),8%
Cc1cc(C)nc(SCc2ccc(C(=O)N/N=C/c3ccc(C(=O)O)cc3)cc2)n1,-13%
CCOc1ccccc1CNC(=O)CCCN1C(=O)COc2ccc(C)cc21,4%
C[N+](C)(CCCCCC[N+](C)(C)CCCN1C(=O)c2ccccc2C1=O)CCCN1C(=O)c2ccccc2C1=O,1%&2%
CC(=O)N(c1ccccc1)c1nc(/C=C/C(=O)O)cs1,-12%
CCOc1ccc(NC(=O)CSC2=NN3CCCC(=O)N=C3S2)cc1,16%
CC[N+](CC)(CCCCS(=O)(=O)[O-])CCNP1(=O)C=C(c2ccccc2)OC(c2ccccc2)=C1,5%
CCN(C(=O)COC(=O)c1ccccc1NCc1ccco1)c1c(N)n(Cc2ccccc2)c(=O)[nH]c1=O,-7%
CCc1ccc(NC(=O)C2CCN(S(=O)(=O)c3cccs3)CC2)cc1,55%[activator]
COc1ccccc1/C=C/C=N/NC(=O)c1ccncc1,7%
COCCCNC(=O)c1ccc2c(=O)n(Cc3ccccc3OC)c(=S)[nH]c2c1,0%
CCc1c(C)nc(N)n2c(SCC(=O)Nc3ccccc3OC)nnc12,-10%
Cc1nn(-c2ccccc2)c2c1C(c1cccc([N+](=O)[O-])c1)N(c1ccccc1)C(=O)N2 (stereo not drawn),-17%
CC(=O)N1CCN(S(=O)(=O)c2cccc(C(=O)NNC(=O)c3ccc(Br)cc3)c2)CC1,2%
O=C(c1cc(O)c(O)c([N+](=O)[O-])c1)c1ccccc1F,-11%&-3%
Cn1cccc1C(=O)OCc1cc(Cl)cc2c1OCOC2,5%
C=CCN1CC(C)/C(=N\O)CC1C (stereo not drawn),3%
CCOc1ncccc1C(=O)N1CCN(S(=O)(=O)c2ccc3ccccc3c2)CC1,-11%
COc1ccc(C(NC(=O)c2ccccc2F)NC(=O)c2ccccc2F)cc1,-12%
COc1ccc2c(c1)-c1c(sn(-c3ccc(OC)c(OC)c3)c1=S)C(C)(C)N2,14%
Cc1cc(Cl)ccc1OCC(=O)NC(=S)Nc1ccccc1N1CCOCC1,-7%
COc1ccccc1-n1c(=S)[nH]c2c(sc(=S)n2-c2ccccc2)c1=O,-14%
CCN1CCN(C(=O)C2CCN(S(=O)(=O)c3ccc4c(c3)NC(=O)C(C)S4)CC2)CC1 (stereo not drawn),0%
Cn1c(/C(C#N)=C2/CCCCCN2)nc2ccccc21,-2%
O=C(O)/C(=C\c1ccco1)NC(=O)c1ccco1,2%
CCOC(=O)C(NC(=O)c1ccccc1)=C1C=C(C)OC(C)=C1,-2%
COc1cccc(NC(=O)Cn2c(SCC(=O)N3CCOCC3)nc3ccccc32)c1,-9%
COc1cc2c(cc1OC)-c1nnc(-c3cccs3)n1C(C)(C)C2,-19%
Cc1c(Cl)cnc(NC(=O)COC(=O)c2cccc(S(=O)(=O)N3CCc4ccccc4C3)c2)c1Cl,-5%
Cn1c(NCCCN2CCOCC2)nc2c1c(=O)n(Cc1ccc(Cl)cc1Cl)c(=O)n2C,-6%
COc1cc(S(=O)(=O)N2CCC(c3nc4ccccc4s3)CC2)ccc1S(=O)(=O)NC1CCCC1,-10%
Cc1cc([N+](=O)[O-])nn1CCC(=O)Nc1nccs1,4%
CC(=O)Nc1ccc(NC(=O)[C@@H](NC(=O)c2cccc(C)c2)C(C)C)cc1,1%
N#CCc1ccc(Oc2ncccn2)cc1,?
CCc1ccccc1NC(=O)CN1C(=O)COc2ccc(S(=O)(=O)N3CCCCCC3)cc21,-2%
O=S(=O)(NC1CCCCC1NCc1ccco1)c1ccc(Cl)cc1 (stereo not drawn),15%
Cc1ccc(-c2csc(N3CCN(c4ccc5nc(-c6ccncc6)n(CCN6CCCCC6)c5c4)CC3)n2)cc1,-18%
O=C(Nc1ccccc1)N1CCC2(CC1)CCN(C(=O)c1cnccn1)CC2,1%
Cc1noc(-c2ccc(-c3noc(-c4ccccc4)n3)cc2)n1,10%
O=c1[nH]c2cccnc2n(CCNc2ncc(C(F)(F)F)cc2Cl)c1=O,-1%
O=C(c1cc(-c2ccccn2)nc2ccc(Cl)cc12)N1CCN(CCc2ccccc2)CC1,-2%
COc1cc(/C=C2\SC(=O)N(CCN)C2=O)ccc1OS(=O)(=O)c1cc(C)ccc1C,-4%
CCOc1ccc(NC(=O)CSc2nnc(C)n2Cc2ccccc2)cc1,-2%
O=c1c2ccccc2oc2ccc(C#CC3(O)CCCCC3)cc12,-14%
C=CCn1c(SCC(=O)O)nc2sc(CC)cc2c1=O,22%
CC(=O)Nc1ccc(NC(=O)Cc2ccc(S(=O)(=O)N3CCCCC3)s2)cc1,-14%
COc1cc2nc(CN(C)Cc3ccc(SC)cc3)[nH]c(=O)c2cc1OC,0%
CCOC(=O)Cn1nc(C)c(NC(=O)c2cccc([N+](=O)[O-])c2)c1C,11%
CSc1nc(N2CCN(C)CC2)c2c(c1C#N)CC(C)(C)OC2,13%

# (next part)
SMILES,VDR inhibitor
CC(C)C(=O)Nc1cccc(C(=O)Nc2ccc3c(c2)OCO3)c1,11%
C=CCNC(=O)/C(C#N)=C/c1ccccc1OCc1ccc(C(=O)OC)cc1,-16%
CCOc1cc(S(=O)(=O)NCCCN2CCOCC2)c(C)cc1C,-16%
COc1ccc(CCn2c(NN=C3CCCC3)nc3c2c(=O)[nH]c(=O)n3C)cc1,16%
Cc1ccc(F)c(C2C3C=CCC(C)C3C(=O)N2Cc2ccccc2)c1 (stereo not drawn),?
CC(C)(C)n1cnc2cc(NC(=O)c3cccs3)ccc21,12%
O=C(c1ccc(O)cc1)c1ccc(C(=O)O)c(C(=O)O)c1,2%
O=[N+]([O-])c1cccc(/C=N/Nc2nc(N3CCCCC3)nc(N3CCCCC3)n2)c1,15%
CCOCCCNc1nc2c(c(=O)n(C)c(=O)n2C)n1CCCc1ccccc1,12%
CCCn1c(=O)[nH]c(=O)c2c(C(F)(F)F)cc(-c3ccc(C)cc3)nc21,13%
O=C(c1ccccc1)N(NC(=O)C(O)(c1ccccc1)c1ccccc1)c1cccc(F)c1,-3%
CC(=O)c1ccccc1NC(=O)CSc1n[nH]c(=O)n1C1CC1,12%
NS(=O)(=O)c1ccc(-n2ncc3c(=O)[nH]c(SCC(=O)Nc4nccs4)nc32)cc1,-17%
CN(C)CCn1c(=O)n(Cc2ccco2)c(=O)c2c3c(sc21)CCCCC3,9%
NNC(=O)c1sc2cc(C(F)(F)F)cnc2c1-c1cccs1,?
Cc1cccc(CNc2nc(-c3ccccc3CN(C)C)nc3ccccc23)c1,0%
CCOC(=O)C(C)Sc1nnc(-c2c[nH]c3ccccc23)n1C (stereo not drawn),-2%
CCN(c1cccc(C)c1)c1ncnc2c1cnn2-c1cccc(Cl)c1,2%
CC(C)N(C)S(=O)(=O)c1ccc(NC(=O)C2=COCCO2)cc1,-16%
CC(=O)Nc1ccc(NC(=O)c2ccc(COc3ccccc3Br)o2)cc1,-9%
Cc1cc(C)n(CC(=O)N/N=C/c2ccc([N+](=O)[O-])s2)n1,12%
COc1ccc(/C(O)=C2/C(=O)C(=O)N(CC3CCCO3)C2c2ccc(O)c(OC)c2)cc1 (stereo not drawn),18%
CCCCOc1ccccc1C1NC(=O)CCC1[N+](=O)[O-] (stereo not drawn),?
O=C(Nc1nnc(-c2ccccc2)s1)c1ccccc1O,21%
CCOC(=O)Cn1c(=O)n(Cc2ccc(OC)cc2)c(=O)c2cccnc21,7%
CC1(C)NC(=O)N(CCCOc2ccccc2Br)C1=O,-11%
CC(=O)Nc1ccc(N2C(C(C)=O)=NN(c3ccccc3)C2c2cccs2)cc1 (stereo not drawn),-1%
CC1=C[C@@H](C)[C@@H](c2ccc(C(F)(F)F)cc2)OC1=O,-2%&-9%
Cc1ccc(N(CC(=O)NCc2ccco2)C(=O)CNS(=O)(=O)c2ccc(F)cc2)c(C)c1,-11%
COc1ccc(N2CCN(C(c3ccc(F)cc3)c3sc4nc(-c5ccco5)nn4c3O)CC2)cc1 (stereo not drawn),-5%
CCOC(=O)c1c(-c2ccc(C)s2)csc1NC(=O)c1cccs1,-17%
Cc1cc(C)cc(-n2c(SCC(N)=O)nc3c(oc4ccccc43)c2=O)c1,7%
Cc1cccc(-n2ncc(C(=O)N3CCOCC3)c2C2CCN(C(=O)OC(C)(C)C)CC2)c1,15%
Cc1cc(C=C2C(=O)c3ccccc3C2=O)c(C)n1-c1cccc(C(=O)O)c1,-3%
CN1/C(=C/C=C(C#N)C#N)C(C)(C)c2ccccc21,18%
O=S(=O)(Cc1cc(-c2ccc(Cl)cc2)no1)c1ccccc1,9%
Cc1cc(F)ccc1Nc1nc2ccc(Cl)cc2n2cnnc12,3%
Cc1ccc(C)c(NC(=O)c2sc(Cl)nc2-c2ccccc2)c1,10%
CC(C)(C)OC(=O)NCc1ccc(NC(=O)c2nc[nH]c2C(=O)NCCN(CCNC(=O)c2[nH]cnc2C(=O)Nc2ccc(CNC(=O)OC(C)(C)C)cc2)CCNC(=O)c2[nH]cnc2C(=O)Nc2ccc(CNC(=O)OC(C)(C)C)cc2)cc1,-14%
CCN(CC)S(=O)(=O)c1ccc(C(=O)NC(C)(C)C)cc1,3%

# Pulled by structure from the entries so far, two records:
SMILES,VDR inhibitor
CC(C)(C)OC(=O)NCc1ccc(NC(=O)c2nc[nH]c2C(=O)NCCN(CCNC(=O)c2[nH]cnc2C(=O)Nc2ccc(CNC(=O)OC(C)(C)C)cc2)CCNC(=O)c2[nH]cnc2C(=O)Nc2ccc(CNC(=O)OC(C)(C)C)cc2)cc1,-14%
Cc1cc(F)ccc1Nc1nc2ccc(Cl)cc2n2cnnc12,3%

# Grouped by structure: the compounds so far with fluorine (13)
SMILES,VDR inhibitor
COc1ccc(C(=O)C2CCCN(C(=O)c3cccnc3OC)C2)cc1F (stereo not drawn),-10%
Oc1cccc2c(NC(=S)Nc3ccc(SC(F)F)cc3)cccc12,-28%
O=C(c1cc(O)c(O)c([N+](=O)[O-])c1)c1ccccc1F,-11%&-3%
COc1ccc(C(NC(=O)c2ccccc2F)NC(=O)c2ccccc2F)cc1,-12%
O=c1[nH]c2cccnc2n(CCNc2ncc(C(F)(F)F)cc2Cl)c1=O,-1%
Cc1ccc(F)c(C2C3C=CCC(C)C3C(=O)N2Cc2ccccc2)c1 (stereo not drawn),?
CCCn1c(=O)[nH]c(=O)c2c(C(F)(F)F)cc(-c3ccc(C)cc3)nc21,13%
O=C(c1ccccc1)N(NC(=O)C(O)(c1ccccc1)c1ccccc1)c1cccc(F)c1,-3%
NNC(=O)c1sc2cc(C(F)(F)F)cnc2c1-c1cccs1,?
CC1=C[C@@H](C)[C@@H](c2ccc(C(F)(F)F)cc2)OC1=O,-2%&-9%
Cc1ccc(N(CC(=O)NCc2ccco2)C(=O)CNS(=O)(=O)c2ccc(F)cc2)c(C)c1,-11%
COc1ccc(N2CCN(C(c3ccc(F)cc3)c3sc4nc(-c5ccco5)nn4c3O)CC2)cc1 (stereo not drawn),-5%
Cc1cc(F)ccc1Nc1nc2ccc(Cl)cc2n2cnnc12,3%

# More compounds
SMILES,VDR inhibitor
CC(C)N=c1cc2n(-c3ccc(Cl)cc3)c3ccccc3nc-2cc1Nc1ccc(Cl)cc1,?
CCOc1ccc(-n2c(COc3ccc(C)cc3)nnc2SCC(N)=O)cc1,-9%
Cc1nccn1CC1CCc2c(c3ccccc3n2C)C1=O (stereo not drawn),3%&3%
CC(C)(C)NC(=O)Nc1ccccc1C(N)=O,0%
COc1cccc(NC(=O)Cn2c3ccc(OC)cc3c3nc4n(c(=O)c32)CCS4)c1,6%
Cc1cc(C)c[n+](CC(=O)c2ccccc2)c1,-2%
COc1ccc(-n2c(NNC(C)=O)nc3sc4c(c3c2=O)CCCC4)cc1,-25%
NCCNC(=O)c1c(O)c2cccc3c2n(c1=O)CCC3,-10%
COCCN1CCc2nc(SCC(=O)Nc3ccc(C)c(Cl)c3)[nH]c(=O)c2C1,-3%
COc1cccc(CNC(=O)CN2C(=O)N(c3cc(C)ccc3C)S(=O)(=O)c3ccccc32)c1OC,9%
COc1ccc(C2CC(=O)c3cc(-c4nc(-c5cccc(Cl)c5)cs4)c(=O)[nH]c3C2)cc1 (stereo not drawn),-20%
CSCc1nc2scc(-c3ccccc3)c2c(=O)[nH]1,1%
COc1cc([N+](=O)[O-])cc(/C=N/NC(=O)c2cncc(Br)c2)c1O,-19%
CCOC(=O)c1c(NC(=O)c2ccccc2OCC)sc2c1CCC(CC)C2 (stereo not drawn),-14%
O=C(CCC(=O)c1cccs1)NCc1ccncc1,-17%
CCOc1cccc2c1Oc1nc(-c3ccccc3)nc(SCC(=O)Nc3ccc(F)cc3)c1C2,-7%
CCOc1cc(/C=N/NC(=O)c2ccncc2)cc(Cl)c1OS(C)(=O)=O,-17%
